Screening results: PubChem, several laboratories
T cruzi repl: inhibitors of intracellular T. cruzi growth, primary screen, luminescence, NIH3T3 host cells. inhibition, % (concentration not given with the values). T. cruzi beta-gal in NIH3T3, 90 h. AID 1885, 2009. 300,000 compounds, 1.4% hits;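 active means mean inhibition across valid replicates above about 55%, limit read from the data; inconclusive means mean below that limit but half or more replicates reach it; inactive means mean below it, under half of replicates reach it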;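 further: signal also drops with host cell toxicity which is not excluded here; 0% = plate median of DMSO wells and 100% = zero luminescence signal; higher percent means less beta-gal luminescence so fewer parasites; stock transfer was 50 nL into about 50 µL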
Bfl-1 A1 inh: caspase 3/7 activation in MEF A1-2A-BIM cells, primary screen, A1 inhibitor project, cell-based, luminescence, HTS. Caspase-Glo 3/7 luminescence, 3 h; percent of clofoctol response, vehicle zero. caspase activation, % (no concentration beside the values). 330,000 compounds, 0.066% hits. AID 2462, 2010;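 active means over half of replicate activation scores above 10%, or exactly half above 10 with the replicate mean above 10; inconclusive means replicate mean below 10 yet half the replicates above 10; inactive means over half of replicates below 10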;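 further: wells of about 30 µL received 50 nL stock; many hits fall short of the cut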
Vif TR-FRET: inhibitors of Vif binding to APOBEC3G peptide, primary screen, biochemical, TR-FRET, GST-Vif 1-94, biotin-A3G peptide, dose response retest (AID 1117319); Virion infectivity factor (Human immunodeficiency virus type 1 group M subtype B (isolate …; TR-FRET GST-Vif / biotin-A3G peptide binding; higher % means a stronger effect; test concentration not given here; strong numbers were not always called active; one-dose inhibition, %; IC50 in µM for titrated hits; 260,000 compounds, 0.57% hits;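 active means above the screen mean plus three standard deviations and confirmed in dose response; inconclusive means results disagree or hit not tested in dose response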;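 further: Vif residues 1-94 fused to GST binding biotinylated APOBEC3G peptide 110-148; 0% = full assay without inhibitor and 100% = GST in place of GST-Vif; retest series ran down from 100 µM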
RanGTP-Impb inh: inhibitors of RanGTP-importin-beta interaction, primary screen, biochemical, FRET, CFP-Ran, YFP-importin-beta, homogeneous. Ran GTPase (GTP-bound) - importin-beta complex. AID 2216, 2009. 300,000 compounds, 1.1% hits. cell-free CFP-Ran/YFP-importin-beta FRET ratio. inhibition, % (no concentration beside the values);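 active means most replicates above 15%; inconclusive means exactly half above 15%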;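 further: 0% = DMSO wells and 100% = Ran loaded with GDP instead of GTP; wells of about 40 µL received 100 nL stock; the first replicate is given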
LANA-H2B inh: blockers of LANA interaction with H2A/H2B – biochemical, FP readout, HTS, primary screen. Protein LANA1 (Human herpesvirus 8 type P (isolate GK18)), Q9QR71. cell-free LANA-H2A/H2B peptide, fluorescence polarization. inhibition, % (concentration not given with the values). 320,000 compounds, 0.6% hits. AID 2629, 2010; in the data active means inhibition mostly above about 10%, no sharp cut-off; inactive means mostly below about 6.7%;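 further: stock transfer was 7.5 nL into about 10 µL; 0% = median of vehicle wells and 100% = median of positive control wells; one replicate is shown; the record names a cut of 25% in any replicate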
Calb FLC: C. albicans growth inhibition with fluconazole, primary screen, CaCi-2 strain, Alamar Blue fluorescence; C. albicans CaCi-2 (fluconazole-resistant clinical isolate) + fluconazole, 48 h; growth inhibition, % (test concentration not listed); 300,000 compounds, 0.57% hits;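 active means most replicates above 75%; inconclusive means exactly half above 75%; inactive means most below 75%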;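 further: all wells also contain fluconazole at 8 µg/ml as a sub-toxic cotreatment; 0% = median of DMSO wells and 100% = median of geldanamycin control wells; wells of about 8 µL received 7.5 nL stock; the first replicate is given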
AF4-AF9 inh: inhibitors of AF4 peptide binding to AF9, primary screen, biochemical, AlphaScreen, biotin-AF4 peptide, FLAG-AF9, single point; Protein AF-9 (Homo sapiens), P42568; inhibition, % at 10 µM; 350,000 compounds, 0.47% hits; AID 651704, 2012;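 active means every replicate reaching a set inhibition limit, whatever the replicate mean, cut at about 25% in these data; inconclusive means mean inhibition reaches that limit but some replicates miss it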;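 further: 0% = plate neutral control median and 100% = total signal loss; the record names both 10 and 1 µM as test concentration; the first replicate is given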
Target sequence (P42568 whole entry, looked up): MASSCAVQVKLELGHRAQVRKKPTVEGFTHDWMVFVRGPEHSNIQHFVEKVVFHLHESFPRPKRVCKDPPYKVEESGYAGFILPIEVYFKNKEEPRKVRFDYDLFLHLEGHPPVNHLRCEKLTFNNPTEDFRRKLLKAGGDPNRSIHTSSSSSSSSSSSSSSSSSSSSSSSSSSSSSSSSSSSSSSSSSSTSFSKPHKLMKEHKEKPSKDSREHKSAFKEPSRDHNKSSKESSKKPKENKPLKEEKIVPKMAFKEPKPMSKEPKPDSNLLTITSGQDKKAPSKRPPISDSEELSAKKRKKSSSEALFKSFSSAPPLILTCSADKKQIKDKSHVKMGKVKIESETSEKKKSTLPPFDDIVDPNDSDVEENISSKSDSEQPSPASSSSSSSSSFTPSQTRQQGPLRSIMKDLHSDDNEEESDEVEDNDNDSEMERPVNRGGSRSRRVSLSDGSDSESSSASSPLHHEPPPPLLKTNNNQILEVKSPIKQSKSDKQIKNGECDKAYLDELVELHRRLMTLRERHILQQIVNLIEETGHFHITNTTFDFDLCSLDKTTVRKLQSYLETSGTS
Beta apoptosis: inhibitors of cytokine-induced beta cell apoptosis, primary screen, luminescence | INS-1E cytokine-induced death, ATP luminescence, 48 h; percent of positive-control rescue, neutral wells zero | AID 435005, 2010 | 300,000 compounds, 0.8% hits | protection from apoptosis, % (no concentration beside the values);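 active means all replicates at 75% or more, or half of them and the mean; inconclusive means half reach 75% but not the mean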;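 further: 0% = cytokine-treated negative control wells and 100% = positive control rescue; higher means more ATP so stronger rescue from cytokine killing; wells of about 40 µL received 100 nL stock; the first replicate is given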
The depositor's hits bear a star; ? = inconclusive; / = no result given; & = joins results of further samples.

SMILES	T cruzi repl	Bfl-1 A1 inh	Vif TR-FRET	RanGTP-Impb inh	LANA-H2B inh	Calb FLC	AF4-AF9 inh	Beta apoptosis
COc1cccc(-c2nn(-c3ccccc3)cc2CNC(C)Cn2cncn2)c1 (stereo not given)	-10	-0.2	?	5.5	-2.3	0	-1.2	/
COc1cc(/C=N/NC(=O)c2c(C)nc3ccc(Cl)cn23)cc(OC)c1OC	3	0.6	-1%	-3.3	-2.1	6	0.2	-15
CCOC(=O)N1CCN(C(=O)CNC(=O)C23CC4CC(CC(C4)C2)C3)CC1	-4	2.0	6%	2.1	-3.5	-1	-3.5	/
O=C(Nc1ccc(F)cc1)C1CCN(S(=O)(=O)c2ccc3[nH]c(=O)oc3c2)CC1	-13	1.6	/	2.0	-5.4	-6	1.2	-3
Nc1nc2nccc(-c3cccnc3)n2n1	-13	0.5	-4%	2.7	-2.2	-2	-1.8	4
Cn1cnnc1Sc1ccc(C(=O)NCCC(c2ccccc2)c2ccccc2)cc1[N+](=O)[O-]	47	0.2	6%	1.7	3.4	24	-3.1	-4
O=C(Cc1ccc2c(c1)CCCC2)Nc1ccc2ccccc2c1	0	-0.5	21%	0.6	4.9	-29	/	-4
Cc1cc(C)nc(SCc2ccc(C(=O)N/N=C3\CCCC(=O)C3)cc2)n1	0	-0.3	14%	-4.5	-3.8	11	1.2	-5
CCCN(Cc1cc2cc(C)ccc2[nH]c1=O)C(=O)c1cccc([N+](=O)[O-])c1	7	0.0	-2%	4.4	-0.3	9	-23	0
O=S(=O)(NCc1ccc(C(F)(F)F)cc1)c1ccc(-n2cnnn2)cc1	7	0.9	/	1.8	0.7	5	-1.9	1
C[C@H](NC(=O)c1ccccc1Cl)C(=O)NCCc1ccc(S(N)(=O)=O)cc1	-1	1.2	7%	2.3	-0.2	-5	-2.0	-11
Cc1cc([N+](=O)[O-])nn1Cc1ccc(F)cc1	1	/	/	-3.3	/	4	-1.3	/
CCC(C)(C)C1CCc2[nH]nc(C(=O)NCC3CC3)c2C1 (stereo not given)	/	-1.0	/	/	1.0	/	5.3	2
CC(C)(C)C(=O)NC(NC(=S)Nc1ccc(S(N)(=O)=O)cc1)C(Cl)(Cl)Cl (stereo not given)	-10	-0.5	/	0.4	/	-3	/	-11
CN(C)C(=O)N1CCC(C(=O)NCc2cccs2)CC1	-14	-1.0	-3%	-0.6	1.1	-5	4.4	-3
Cc1nc(-c2cc(-c3ccc(Cl)cc3)no2)cs1	-8	-6.0	-8%	-3.8	-1.2	0	1.9	5
O=C(NCc1ccco1)c1ccc(CS(=O)(=O)Cc2ccc(Cl)cc2)o1	3	-1.0	6%	-8.2	-0.8	4	-49	5
Cc1c(NC(=O)c2ccccc2)c(=O)n(-c2ccccc2)n1C	-4	0.4	26%	-9.6	-3.9	-1	/	/
S=c1[nH]nc(Cc2cccs2)n1-c1cccc2ccccc12	7	0.0	-5%	1.4	-2.9	-1	/	/
O=C(C1=C(O)C(=O)N(CCc2ccccc2)C1c1ccncc1)c1cc2ccccc2o1 (stereo not given)	-1	0.2	-20%	-1.7	7.3	3	-2.4	-5
O=C(NCc1ccccc1F)C1CCN(S(=O)(=O)c2ccccc2)CC1	-1	0.1	/	2.4	-0.5	10	-2.9	2
CN1C(=O)N(CC(=O)N2CCN(c3ccccc3F)CC2)C(=O)C12CCCCC2	/	-0.3	-1%	/	11	/	2.0	-7
COc1ccc(Br)cc1CNC(=O)CCc1nc(-c2ccc(C)cc2)no1	13	0.4	-4%&1%	6.3	4.0	2	/	0
COc1cc(OC)cc(C(=O)N2CCN(c3ccccn3)CC2)c1	-9	-0.3	/	-0.4	8.7	12	-1.7	-5
O=C1c2ccccc2-c2onc3ccc(N4CCCC4)c1c23	46	/	2%	-0.7	/	79	28*	/
Cc1nnc2n(-c3ccccc3)c(=O)c3ccccc3n12	5	-0.7	/	2.1	-0.2	-2	-0.9	-12
CN(CC(=O)Nc1c(Cl)cccc1Cl)C(=O)C1CC(=O)N(Cc2ccccc2)C1 (stereo not given)	/	-0.6	0%	/	/	/	0.7	-3
CC(C)n1c(SCC(=O)Nc2nc3c(s2)CCCC3)nc2c1c(=O)n(C)c(=O)n2C	-20	0.5	6%	-1.2	-1.0	0	/	8
CCOC(=O)C1CCCN(CCC(C)c2ccccc2)C1 (stereo not given)	51	0.4	?	-0.7	4.4	-25	/	-5
CCn1c(SCC(=O)N2CC(=O)Nc3ccccc32)nnc1-c1ccoc1C	-8	1.2	1%	?	1.1	-7	/	-11
CCn1nnnc1SCC(=O)N1CCCc2ccccc21	1	0.3	-5%	8.5	6.2	2	/	-2
COc1ccccc1C(=O)NCC1CCN(c2ccc(S(=O)(=O)N3CCOCC3)cc2)CC1	7	1.6	5%	?	-2.2	-9	/	-3
COc1ccc2[nH]c3c(=S)nc[nH]c3c2c1	-19	-0.1	1%	?	-4.8	9	-0.2	-1
CCOc1ccccc1CN1CCNC(=O)C1CC(=O)N(C)C1CCOCC1 (stereo not given)	-1	0.2	2%	2.8	0.8	-5	-4.5	-7
NS(=O)(=O)c1cc2c(cc1Cl)NC(Cc1ccccc1)NS2(=O)=O (stereo not given)	-6	0.5	-7%	6.3	-5.6	5	-0.6	-1
CC(N)C12CC3CC(CC(C3)C1)C2 (stereo not given)	1&5	-0.4&1.3	1%&-5%	0.1&2.5	-5.6&-13	-7	-3.6&0.1	-3&4
CCCCc1nnc(NC(=O)C2CCCO2)s1 (stereo not given)	8	-0.5	3%	1.7	6.8	-13	/	-2
Cc1ccc(S(=O)(=O)N/N=C/c2cn(C)nc2C)cc1	-12	0.3	12%	-3.5	-0.5	-7	/	-1
CCn1c(C)nc2cc(C(=O)NNC(=S)Nc3ccc(Cl)cc3Cl)ccc21	6	0.2	/	5.1	-2.4	95*	/	1
CC(OC(=O)CCCc1c[nH]c2ccccc12)C(=O)Nc1ccc(S(N)(=O)=O)cc1 (stereo not given)	-7	-0.1	-2%	3.6	1.6	-2	0.3	-3
CCc1nc2sc(C(=O)O)c(N)c2c2c1CCCC2	-7	1.3	7%	-1.0	-3.0	-4	-7.3	-6
Cc1nn2c(NCc3ccccn3)c3c(nc2c1-c1ccccc1)CCC3	13	-0.2	29%	-2.1	1.4	-3	13	56
CN(C1CCCCC1)S(=O)(=O)c1ccc(NC(=O)CCC(=O)O)cc1	-2	0.5	15%	-0.2	-4.3	-14	/	-7
CN(C)S(=O)(=O)c1ccc(NC(=O)COC(=O)Cn2[nH]c(=O)c3ccccc3c2=O)cc1	6	0.4	-8%	0.8	3.0	-2	1.3	-1
CCCCCC(=O)Nc1ccc(Cl)cn1	-5	-1.0	-1%	1.7	0.6	-14	8.0	/
CC(C)Oc1ccc(C(=O)/C=C2/C(=O)Nc3ccccc32)cc1	10	0.4	/	-1.0	-1.3	8	-2.2	10
CCOc1cc(NC(=S)NCCCN2CCOCC2)c(OCC)cc1NC(=O)c1ccc(OC)cc1	2	0.9	7%	10	-2.4	-7	4.3	-5
O=C(c1c(F)cccc1F)N(Cc1ccccn1)C1CCCC1	-10	0.2	72%	-0.6	-0.3	-7	-30	-4
C/C(=N\NC(=O)c1nnn(-c2nonc2N)c1C)c1ccc(-c2ccccc2)cc1	-13	-0.2	/	5.4	6.5	17	-2.6	-7
COc1cc(CN2CCN(C(=O)CC(C)C)CC2)cc(OC)c1OC	-17	0.7	29%	-3.7	2.2	-19	/	3
COc1cc(OC)cc(C(=O)Nc2ccc(S(=O)(=O)Nc3ccccn3)cc2)c1	6	0.7	-48%	-0.4	13	-5	-3.7	-2
CCOC(=O)NC1CCS(=O)(=O)C1 (stereo not given)	-6	0.8	?	5.8	2.0	-11	/	-10
O=C(Nc1nc2ccccc2[nH]1)c1ccccc1	9	-7.5	4%	2.4	3.5	0	/	15
CN(Cc1ccccc1)CC(O)COc1ccc(CNCc2ccc(Cl)s2)cc1 (stereo not given)	31	0.5	/	3.0	0.4	-9	6.1	6
COc1ccc(C(C(=O)NCC2CCCO2)N(Cc2ccco2)C(=O)c2snc(C(N)=O)c2N)cc1OC (stereo not given)	1	0.4	-6%	-5.0	-0.4	1	-2.4	-11
Cc1c(C(=O)N2CCCC(C(F)(F)F)C2)oc2ccccc12 (stereo not given)	/	-0.7	1%	/	3.5	/	1.0	3
Cc1ccc(CSc2nnc(-c3cccnc3)n2N)cc1	11	-0.3	25%	-1.4	0.1	12	/	1
COc1ccc(NS(=O)(=O)c2ccc(NC(=O)C(C)(C(F)(F)F)C(F)(F)F)cc2)nn1	3	1.1	5%	-2.5	-2.8	-32	/	-1
O=C(CN1C(=O)NC2(CCCCCCC2)C1=O)N1CCOCC1	1	-0.4	0%	-2.9	-0.2	5	3.5	-3
CC(=O)OC1COC(n2ccc3ccccc32)C(OC(C)=O)C1OC(C)=O (stereo not given)	-6	-0.7	23µM*	-0.5	1.7	3	/	-3
More results follow.
SMILES	T cruzi repl	Bfl-1 A1 inh	Vif TR-FRET	RanGTP-Impb inh	LANA-H2B inh	Calb FLC	AF4-AF9 inh	Beta apoptosis
CCOC(=O)C1CCCN(C(=O)CN2C(=O)C(CC)Oc3ccc(C)cc32)C1 (stereo not given)	4	1.0	1%	1.9	-3.2	-6	/	-2
COc1ccc(C2=NOC(Cn3nc(C(=O)NCc4ccccc4OC)cc3-c3ccccc3)C2)cc1 (stereo not given)	17	0.4	/	-1.9	7.0	-12	2.7	2
O=C(Nc1ccc2c(c1)OCCO2)c1cccc(S(=O)(=O)N2CCCCC2)c1	-7	-0.2	0%	0.1	-2.7	-10	/	-5
CCn1c(SCC(=O)Nc2cc(C)on2)nc2c(c1=O)SC(C)C2 (stereo not given)	-19	-0.7	0%	3.5	-1.3	-7	/	0
Cc1nnc(Oc2ccccc2F)c2ccccc12	-9	0.5	0%	-1.4	4.0	?	/	-4
O=C(CSc1n[nH]c(-c2ccccn2)n1)Nc1ccccc1	-21	-0.5	/	1.4	-6.5	-1	-0.7	1
O=C1c2ccccc2-c2ncnc3c(N4CCOCC4)cc(N4CCOCC4)c1c23	8	0.6	13%	-2.1	2.4	-4	17	9
Cc1cccc(CNc2ncnc3ccc(-c4ccc5c(c4)OCCO5)cc23)c1	/	1.1	/	/	-3.3	/	0.9	108*
CC1(C)O[C@H]2CC(=O)OC[C@]23[C@H]2CC[C@@]4(C)[C@H](c5ccoc5)OC(=O)[C@H]5O[C@]54[C@]2(C)[C@@H](O)C[C@@H]13	/	-0.7	/	/	3.9	/	-4.6	-2
COc1ccc(OC)c(CNS(=O)(=O)c2c(C)nc3scc(C)n3c2=O)c1	-17	-1.3	/	3.6	-4.1	-1	0.4	-3
